# PMP22 txn prim: modulates PMP22 transcription in S16 Schwann cells. Potency, µM (doses to about 57.5 µM), for inactives: at the highest dose activity change, negative = inhibition, usual class: inhibitors. AID 1508649. actives 2% (n = 43,000). S16 Pmp22-F2sN Schwann cells (luciferase reporters placed in the Pmp22 gene), FLuc/NLuc coincidence luminescence, 24 h; active = clear falling dose curves in both reporters; inconclusive = both reporters move, but less clearly or upward; inactive = either reporter flat; the % is the NLuc reporter signal; note: % is set by controls: 0 for no effect and ±100 for the full control effect; some results filed as inactive show a strong effect at the top dose
#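 Schwann cells carrying the coincidence reporter were exposed to library compounds for 24 h at 37C, then lysed and read for FLuc and, after quenching, NLuc luminescence on a CCD imager.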
# HTT promoter inh: inhibitors of huntingtin promoter activity; HEK293 HTT promoter firefly luciferase reporter (activity 0% = vehicle and -100% = no light), 24 h; Potency, µM (series often up to 57.5 µM), inactives show top-dose activity change, negative = inhibition, usual class: inhibitors; actives 0.93% (n = 48,000); active = well fitted inhibition curve with a large enough effect; inconclusive = small, poorly fitted or top-dose-only effect; inactive = no such curve, though single readings can be large or run the other way; note: nearly all actives have a fitted effect of over 50% in size
#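 Quantitative HTS used concentration series of up to 57.5 uM final on HEK293 luciferase reporter cells, 24 h at 37 degrees C. Readout was Dual-Glo firefly luminescence.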
# Active calls of the source: *; ? = inconclusive; . = no result given; [ ] = remark or other dose. Potency is the fitted concentration of half-maximal effect. Hits appear at their usual frequency; 2.4% or so of the library scored in one or more.
entry	structure	PMP22 txn prim	HTT promoter inh
1	CCN(CC)C(=O)CN1C(=O)COc2ccc(S(=O)(=O)N3CCOCC3)cc21	0%	-15%
2	CCOCCCn1c(=N)c(C(=O)NC2CCCC2)cc2c(=O)n3cc(C)ccc3nc21	-20%	2%
3	COc1cccc(CNc2ncc(-c3ccc(Br)cc3)n2C)c1	?	-20%
4	CCCC(=O)NCc1nc2cccnc2n1Cc1ccc(F)cc1	-18%	1%
5	CCOc1ccc(CNC(=O)c2cccc(NC(=O)N3CCSc4ncccc43)c2)cc1	-10%	?
6	Cc1ccccc1Cn1c(COc2ccc(Cl)cc2)nc2ccccc21	6%	-16%
7	Cc1cccc(C(=O)n2nc(-c3cccnc3)nc2NCc2ccc(F)cc2)c1	-9%	-37%
8	CCN(CC)C(=O)c1sc2c(c1C)c(=O)n(-c1ccccc1)c(=O)n2Cc1cc(=O)n2ccccc2n1	12µM*	-3%
9	CCOc1ccc(NC(=O)Cn2c(=O)c(CNc3ccc(CC)cc3)cc3cc4c(cc32)OCO4)cc1	0%	-18%
10	Cc1ccc(COC(=O)c2[nH]c3c(c2C)C(=O)CC(c2ccc(Cl)cc2)C3)cc1 (stereo not drawn)	-13%	3%
11	CCOC(=O)C1=C(CS(=O)(=O)c2ccc(C(C)(C)C)cc2)NC(=O)NC1c1cccc(OC)c1 (stereo not drawn)	?	?
12	CCc1ccccc1N(C)C(=O)C1CCCN(c2ncnc3onc(-c4ccc(F)cc4)c23)C1 (stereo not drawn)	?	-5%
13	COc1ccc(NS(=O)(=O)c2ccc3c(c2)CCN3C(=O)CCC(=O)O)cc1Cl	1%	-13%
14	COc1cccc(Cc2nc3ccccc3nc2SCC(=O)Nc2ccccc2F)c1	-2%	-28%
15	Cc1ccc(NC2=C(CC(=O)O)C(c3ccc(F)cc3)N(c3ccc(C)cc3)C2=O)cc1 (stereo not drawn)	-3%	27%

# Single records (already shown):
# CCOCCCn1c(=N)c(C(=O)NC2CCCC2)cc2c(=O)n3cc(C)ccc3nc21 in the list: PMP22 txn prim = -20%; HTT promoter inh = 2%
# COc1ccc(NS(=O)(=O)c2ccc3c(c2)CCN3C(=O)CCC(=O)O)cc1Cl in the list: PMP22 txn prim = 1%; HTT promoter inh = -13%

# Later entries
entry	structure	PMP22 txn prim	HTT promoter inh
16	Cc1cccc2nc(-c3ccc(Cl)s3)c(Nc3ccc4c(c3)OCCO4)n12	-5%	5%
17	CCOCCc1nnc(NC(=O)C(=O)c2cc(C)n(-c3ccc(Cl)cc3)c2C)s1	0%	-18%
18	CCc1ccc(C(=O)c2cn(CC(=O)Nc3ccc(C)c(C)c3)c3ccccc3c2=O)cc1	?	?
19	CC(C)CCOc1ccccc1Cn1c(=O)sc2ccccc21	29%	-7%
20	O=C(Nc1ccccc1O)c1cc(S(=O)(=O)N2CCCC2)ccc1Cl	?	?
21	COc1ccc(Cn2c(CO)cnc2SCc2ccc(C)cc2)cc1	-1%	63%[activator]
22	COc1ccccc1OCCn1c(-c2ccc(Cl)cc2)nc2ccccc2c1=O	-11%	-4%
23	O=C(CSCc1cc(=O)c2ccccc2[nH]1)Nc1cccc(C(F)(F)F)c1	3%	-18%
24	COc1ccc(C)cc1Nc1c2c(nc3ccccc13)CCC2	11µM*	?
25	Brc1ccc(-c2nc3ccccn3c2Nc2ccc3c(c2)OCCO3)o1	?	-20%
26	Cc1ccccc1Nc1nn2c(=O)c3ccc(C(=O)N4CCCC(C)C4)cc3nc2s1 (stereo not drawn)	-48%	-10%
27	Cc1cccc(N(C)c2nc3ccccc3c3nnc(C)n23)c1	-22%	-11%
28	CC(C)CCNC(=O)c1cc2cc(S(=O)(=O)N3CCCCC3)ccc2n1C	-25%	-26%
29	CCC(=O)Nc1ccccc1-c1nc2ccccc2n(C(C)C(=O)Nc2cccc(Cl)c2C)c1=O (stereo not drawn)	-16%	-20%
30	Cc1ccc(C(C)C)cc2c(C)ccc1-2	.	2%
31	Cn1c(C(=O)Nc2cccc(Cl)c2)cc2c(=O)n(C)c3ccccc3c21	?	0%
32	Cc1nn(CC(=O)NCc2ccco2)c(=O)c2cc3ccccc3n12	12%	-9%
33	COc1cc2nc(SCC(=O)Nc3ccccc3F)n3nc(-c4ccccc4)nc3c2cc1OC	-9%	-2%
34	CCCCN(C)CC(O)Cn1cc(/C=C/C(=O)c2ccc(OC)c(OC)c2)c2ccccc21 (stereo not drawn)	?	-5%
35	Cc1ccc(Cn2c(C(=O)Nc3ccc(Cl)cc3)cc3sccc32)cc1	-60%	4%
36	Cc1cc(-n2c(C)nc3ccccc3c2=O)ccc1NC(=O)c1ccc(C)c([N+](=O)[O-])c1	?	?
37	O=C(Nc1cccc(C(F)(F)F)c1)C1CCCN(S(=O)(=O)c2cccc3nsnc23)C1 (stereo not drawn)	?	?
38	COc1ccc(CNC(=O)CC(c2ccc(OC)cc2)N2Cc3ccccc3C2=O)cc1 (stereo not drawn)	30%	-14%
39	COc1ccc(NCc2cc3cc4c(cc3n(CC(=O)Nc3cccc(F)c3)c2=O)OCO4)cc1	?	-24%
40	CCc1nnc(SCC(=O)Nc2ccc(F)cc2F)c2cc3sc(C)cc3n12	11%	9%
41	COc1ccc(CNC(=O)c2cc(C)nc3c2c(C)nn3-c2cccc(Cl)c2C)cc1	?	?
42	Cc1ccc2c(c1)c1c(c(=O)n(-c3ccccc3)c(=O)n1CC(=O)c1ccc(F)cc1)n2C	-2%	-1%
43	COc1ccc(OC)c(C2=NS(=O)(=O)N(C)C(C(=O)Nc3ccc(C(C)=O)cc3)=C2)c1	?	?
44	CCCN1C(=O)CN(C2CCCCCC2)C(=O)C1c1ccc(OCC)c(OC)c1 (stereo not drawn)	-14%	-6%
45	Cc1cccc(NC(=O)c2c(NC(=O)c3ccco3)sc3c2CCC(C(C)(C)C)C3)c1 (stereo not drawn)	-1%	-11%
46	Cc1nn2c(=O)cc(COC(=O)c3ccc(F)cc3)nc2s1	?	9%
47	COc1cc2ccccc2cc1C(=O)Nc1ccc2oc(-c3ccccc3)nc2c1	?	6%
48	Cc1ccc(-n2cnnn2)cc1S(N)(=O)=O	8%	-13%
49	Cc1ccc(S(=O)(=O)C(CNC(=O)Cc2ccc(Cl)cc2)c2cccs2)cc1 (stereo not drawn)	3%	?
50	O=c1cc(-c2ccc(O)c(O)c2)oc2cc(O)cc(O)c12	.	48%[activator]
51	CCC(=O)N1c2ccccc2CC1C(=O)N1CCN(c2ccccc2)CC1 (stereo not drawn)	?	-3%
52	Cc1ccc(C(=O)Nc2c(C(=O)Nc3ccc(C)c(C)c3)sc3nc(C)cc(C)c23)cc1	?	-30%
53	Cc1nn(CC(=O)NC2CC2)c(=O)c2cc3ccccc3n12	7%	-8%
54	CCCN1CCN(CCNC(=O)Nc2ccc(OC)c(OC)c2)CC1	-2%	-5%
55	COc1ccc(OC)c(NS(=O)(=O)c2ccc(Br)s2)c1	2%	-28%
56	COc1ccc(N2CCN(C(=O)C(C)n3c(=O)cc(C(F)(F)F)c4c(C)nn(C)c43)CC2)cc1 (stereo not drawn)	?	-6%
57	COc1cccc(N2CC(NC(=O)C3CC3)CC2=O)c1 (stereo not drawn)	16%	-4%
58	COc1ccc(N2CCN(S(=O)(=O)c3ccc(-c4cc(C(F)(F)F)on4)s3)CC2)cc1	0%	3%
59	CC1=C(c2ccc(C)c(C)c2)S(=O)(=O)N=C1N1CCC(C(=O)Nc2cccc(F)c2)CC1	-24%	?
60	COc1ccc2cc3cc(C(=O)NCc4ccc(C)cc4)oc3nc2c1	-4%	-10%

61	CC(=O)c1ccc(NC(=O)C2CCN(S(=O)(=O)c3c(C)noc3/C=C/c3ccc(C)cc3)CC2)cc1
62	CCOC(=O)C(Cc1ccccc1)NC(=O)CCc1c(C)nc2c(c(C)nn2-c2ccc(C)c(C)c2)c1C (stereo not drawn)
63	CC(CC(=O)Nc1ccc(Br)cc1F)S(=O)(=O)c1ccc2c(c1)NC(=O)CO2 (stereo not drawn)
64	CCc1ccc(OCC(=O)N(Cc2ccc(Cl)cc2)C2CCS(=O)(=O)C2)cc1 (stereo not drawn)
65	COc1ccc(CCNC(=O)CCCCn2c(=O)c3ccccc3n(Cc3ccc(F)cc3Cl)c2=O)cc1OC
66	Cc1ccc2c(Br)cc(Br)c(O)c2n1
67	CCN(Cc1ccccc1)C(=O)c1sc2nc3n(c(=O)c2c1C)CCCC3
68	CCOc1ccccc1NC(=O)C(=O)c1cc(C)n(-c2ccc(F)cc2)c1C
69	CCOC(=O)c1ccc(NC(=O)c2cc3c(n(-c4ccc(C)cc4)c2=O)CC(C)(C)CC3=O)cc1
70	Cn1c(=O)c(=O)n(C)c2cc(N3CCCC3)c(NC(=O)c3ccccc3F)cc21

Assay by compound	61	62	63	64	65	66	67	68	69	70
PMP22 txn prim	?	-25%	-19%	6%	?	.	-25%	-11%	-5%	-1%
HTT promoter inh	-21%	-13%	-3%	-26%	-7%	?	-18%	25%	-12%	-4%

# Structural class: the compounds so far with bromine (5)
3	COc1cccc(CNc2ncc(-c3ccc(Br)cc3)n2C)c1
25	Brc1ccc(-c2nc3ccccn3c2Nc2ccc3c(c2)OCCO3)o1
55	COc1ccc(OC)c(NS(=O)(=O)c2ccc(Br)s2)c1
63	CC(CC(=O)Nc1ccc(Br)cc1F)S(=O)(=O)c1ccc2c(c1)NC(=O)CO2 (stereo not drawn)
66	Cc1ccc2c(Br)cc(Br)c(O)c2n1

Assay by compound	3	25	55	63	66
PMP22 txn prim	?	?	2%	-19%	.
HTT promoter inh	-20%	-20%	-28%	-3%	?

# Next structures follow:
71	COc1ccc(N2CCN(C(CNC(=O)c3ccc(OC)c(OC)c3)c3cccnc3)CC2)cc1 (stereo not drawn)
72	Cn1c(SCC(N)=O)nc2c([nH]c3ccccc32)c1=O
73	CC(=O)c1sc(N2C(=O)c3oc4ccccc4c(=O)c3C2c2ccc(C)cc2)nc1C (stereo not drawn)
74	CCCCNc1nc2c(c(=O)n(C)c(=O)n2C)n1CC(O)COc1ccccc1C (stereo not drawn)
75	CCn1cc(C(=O)N2CCN(c3ccccc3)CC2)c(=O)c2cc(S(=O)(=O)N3CCCC3)ccc21
76	Cc1ccc2oc3c(c(=O)c2c1)C(c1ccc(O)cc1)N(c1nc(C)c(C)s1)C3=O (stereo not drawn)
77	COc1cc(C(=O)NCC(c2ccc(N(C)C)cc2)N2CCCC2)cc(OC)c1OC (stereo not drawn)
78	O=C(NCCc1ccccc1)C(=O)NCC(c1cccnc1)N1CCN(c2ccccc2F)CC1 (stereo not drawn)
79	O=C(Nc1ccc(F)cc1)c1nc(SCc2ccccc2F)ncc1Cl
80	COc1ccc(CNC(=O)CSc2nnc(C)c3c(C)n(-c4ccccc4)nc23)c(OC)c1

Assay by compound	71	72	73	74	75	76	77	78	79	80
PMP22 txn prim	8%	?	4%	?	-10%	-21%	-5%	?	-31%	?
HTT promoter inh	-14%	5%	-14%[11.5 µM]	-30%	15%[11.5 µM]	-3%	-2%	?	-13%	-28%

81	CCOC(=O)c1cnc2nc(NCc3cccc(Br)c3)[nH]n2c1=O
82	Cc1coc2c(C)c3oc(=O)c(CCC(=O)NCCc4ccccc4F)c(C)c3cc12
83	Cc1cccc(N2CCN(C(=O)Cn3ncc4c3-c3ccccc3OC4)CC2)c1C
84	COc1cc(C(=O)N2CCN(CCc3ccncc3)CC2)cc(OC)c1OC
85	CCN(C(=O)CSc1nc2ccccc2nc1Cc1cccc(OC)c1)c1cccc(C)c1
86	Cc1ccc(NC(=O)C2CCCN(C(=O)c3cnn(-c4ccccc4)c3-n3cccc3)C2)cc1 (stereo not drawn)
87	COc1ccc(CNC(=O)C2=C(C)C(=O)OC23CCCCC3)cc1OC
88	O=C(Nc1ccc(N2CCN(c3ccc(F)cc3)CC2)c(C(=O)O)c1)c1ccccc1F
89	COc1ccc(CNC(=O)CC(c2ccc(OC)c(OC)c2)N2Cc3ccccc3C2=O)cc1 (stereo not drawn)
90	CCOC(=O)c1cnc2ccc(OCC)cc2c1Nc1cc(Cl)c(OC)cc1OC

Assay by compound	81	82	83	84	85	86	87	88	89	90
PMP22 txn prim	-7%	?	?	2%	?	?	-12%	4%	3%	?
HTT promoter inh	-9%	-11%	?	5%	?	?	-12%	3%	-7%	-6%

91	Cc1cc(C)cc(NC(=O)CSc2nc3c(c(=O)[nH]2)CN(Cc2ccc(F)cc2)CC3)c1
92	CCCN1CCN(CC2=C(C(=O)OCC)C(c3cccc(OC)c3OC)NC(=O)N2)CC1 (stereo not drawn)
93	CCc1ccc(S(=O)(=O)c2nnn3c2nc(Nc2ccc(NC(C)=O)cc2)c2sccc23)cc1
94	CCc1ccc(-n2nc(C)c3c(C(=O)NCCc4ccc(OC)c(OC)c4)cc(C)nc32)cc1
95	Cc1nc(N2CCCC2)ncc1C(=O)N1CCN(c2ccc(Cl)cc2)CC1
96	COc1ccc(NS(=O)(=O)c2ccc3nc(-c4ccccc4)[nH]c3c2)cc1
97	CCn1c(Oc2ccc(F)cc2F)nc2c1c(=O)n(C)c(=O)n2C
98	COc1ccc(Cl)cc1NC(=O)c1c(NCc2sccc2C)sc2c1CCCC2
99	CCC1CN(C(=O)NCc2ccccc2)c2cc(Cl)ccc2O1 (stereo not drawn)
100	O=C(Cc1ccc(NC(=O)N2CCSc3ncccc32)cc1)NCCc1ccccc1
101	CCOc1ccc(NC(=O)C(=O)c2cc(C)n(-c3cc(C)cc(C)c3)c2C)cc1

Assay by compound	91	92	93	94	95	96	97	98	99	100	101
PMP22 txn prim	8%	-40%	11µM*	?	-10%	?	?	-82%	-24%	-16%	-26%
HTT promoter inh	-32%	4%	-4%	?	-30%	?	-15%	-5%	-16%	-31%	-13%
